BJeLR viability = BJeLR cell viability loss. BJeLR (HRASV12) viability, CellTiter-Glo ATP luminescence, 48 h; reference of the scale not given here. inhibition, % (no concentration beside the values). 300,000 tested, 0.17% active. AID 1554;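 active = replicate mean above 50%; inconclusive = above 50% but judged a plate artefact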;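 note: 50 nL library stock added to about 25 µL; numbers are from one replicate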
RN4220 kill = kills Staphylococcus aureus RN4220. S. aureus RN4220 growth, OD600, 16 h. inhibition, % (test concentration not listed). 330,000 tested, 0.33% active. AID 1259311;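 active = z-score of -3 or lower and OD600 up to 0.18 on both plates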;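 note: plate controls were untreated cells for no effect and reference antibiotic for full effect; stock transfer was 100 nL into about 80 µL; one replicate is shown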
Mtb hypoxia rep = reduces hypoxia-regulated biosensor signal in M. tuberculosis. M. tuberculosis hypoxia-regulated fluorescent reporter, fluorescence. fluorescence inhibition, % (concentration not given with the values). AID 1159583. 300,000 tested, 0.1% active;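 active = 35 to 45% if threefold the growth effect, above 45% if 1.5-fold the growth effect; inactive = the rest, general growth blockers included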;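 note: wells of about 50 µL received 100 nL stock; 0% = vehicle wells and 100% = reference inhibitor wells; whole bacteria with a GFP reporter of the hypoxia response; strong numbers were not always called active; many hits fall short of the cut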
PrP UTR inh = inhibition of PrP 5' UTR reporter expression. 340,000 tested, 0.35% active. cell-based PrP 5' UTR mRNA reporter, plate reader. inhibition, % (no concentration beside the values). AID 488862;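 active = every replicate at 50% or more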;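 note: 0 = median of the neutral control wells; tested in H4 reporter cells; numbers are from one replicate; inactives centre near -14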
Sa ugtP lethal = kills S. aureus RN4220 lacking UgtP; AID 1259309; S. aureus RN4220 ugtP deletion, OD600 growth, 16 h; some inactives read as strong as hits; 330,000 tested, 0.54% active; growth inhibition, % (concentration not given with the values);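 active = z-score under -3 and OD600 up to 0.15 on both plates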;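 note: plate controls were untreated wells for no effect and antibiotic for full effect; wells of about 80 µL received 100 nL stock; the first replicate is given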
Autofluor counter = flagged as autofluorescent in microsphere protease counterscreen; fluorescence intensity (concentration not given with the values); AID 624483; compound autofluorescence counterscreen, microsphere flow cytometry; hits give high values; 360,000 tested, 3.1% active;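 active = at least 3 SD above the mean of all compounds, about 16000 in these data; inconclusive = too few beads counted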;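 note: 100 nL of 1 mM stock went into each well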
Mtb hypoxia rep growth = second read-out of Mtb hypoxia rep, no call of its own (marks repeat the call); growth inhibition, %; measured here: M. tuberculosis growth (absorbance);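 0% = vehicle and 100% = reference antibiotic; read after six days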
Active calls of the source: *; ? = inconclusive; nt = not tested or not shown.

Compound	Mtb hypoxia rep	PrP UTR inh	Sa ugtP lethal	Mtb hypoxia rep growth	BJeLR viability	Autofluor counter	RN4220 kill
Cc1noc(C)c1CN1C(=O)c2cccc([N+](=O)[O-])c2C1=O	1	-16	-4	-3	-7	3440	-1.9
Cc1cccc2nc(-c3cccnc3)c(Nc3ccccc3)n12	-2	0	6	7	-2	4853	2.5
CCCOc1ccc(C(F)(F)F)cc1NC(=O)c1cc(C)on1	0	-24	12	-3	nt	2856	0.8
Cc1cc(C)n(CC(=O)c2ccccc2)c(=O)c1C#N	nt	-6	1	nt	0	3448	0.2
COc1ccccc1NC(=O)N(C1CCCC1)C1CCN(C(C)=O)CC1	0	-8	1	2	10	5144	3.8
O=C1OC(c2cccc([N+](=O)[O-])c2)C2(CCCC2)C(=O)C12CCCCC2 (configuration not stated)	11	-12	0	4	6	2096	8.3
Cn1c(CN2CCCC2)nc2cc(NC(=O)COc3ccccc3)ccc21	nt	-24	-1	nt	4	4147	2.2
CCCCc1ccc(NC(=S)NCC2CCCO2)cc1 (configuration not stated)	9	-9	3	8	-4	2382	2.4
Cn1c(SCC(=O)c2ccccc2)nnc1-c1cnccn1	7	-44	2	13	0	9458	2.3
O=C(O)c1ccccc1-c1ccccc1C(=O)NCCc1ccccc1	9	11	0	3	-4	2948	1.6
Cc1nnc2ccc(N3CCN(c4cccc(C(F)(F)F)c4)CC3)nn12	8	-42	-9	9	-11	5629	8.1
COc1ccc(C[C@@H]2CN3C(=NC[C@@H]3Cc3ccc(O)cc3)N2C[C@H](C)NC(=O)CCC2CCCCC2)cc1	nt	-7	nt	nt	-15	3115	nt
CC/C(=C(\c1ccc(O)cc1)c1ccc(OCCN(C)C)cc1)c1ccccc1	nt	-1	nt	nt	12	6631	nt
CN1C(=O)C(CC(=O)Nc2ccccc2)S/C1=N/c1nccs1 (configuration not stated)	nt	-24	nt	nt	7	2113	nt
N#CCC(=O)Nc1ccc(C(=O)OCC(=O)c2c[nH]c3ccccc23)cc1	-5	-30	-11	6	nt	4041	4.7
CN(C(=O)COc1ccc(C(C)(C)C)cc1)C1CCS(=O)(=O)C1 (configuration not stated)	-2	-22	0	6	-2	12684	5.9
CC(C)C(=O)Nc1ncc(Cc2ccc(Cl)cc2)s1	-5	-4	-10	1	1	3761	4.7
CNC(=O)c1ccc(NC(=O)c2cccc(C(F)(F)F)c2)cc1	4	-9	-3	-6	4	3619	-5.0
Cc1cc(C)cc(N(CC(=O)NCC2CCCO2)S(=O)(=O)c2c(C)noc2C)c1 (configuration not stated)	nt	-14	4	nt	1	5453	-0.9
Cc1ccc(C)c(NC(=O)C2C3C=CC(O3)C2C(=O)O)c1 (configuration not stated)	9	-5	7	-5	0	3936	3.5
CCCCC(=NCCO)C1=C(O)C(C(=O)OC)C(C)(C)CC1=O (configuration not stated)	-2	-15	-7	-1	0	2421	0.4
Cc1nn(Cc2c(Cl)cccc2Cl)c(C)c1NC(=O)CCCn1nc(C)c([N+](=O)[O-])c1C	9	-8	2	6	-10	2602	4.7
CCCCn1nc2cc(C(=O)NCC3CCCO3)ccc2c1OCC (configuration not stated)	5	nt	3	3	nt	nt	4.9
COc1ccc(/C=C/c2nnc(NC(=O)COc3ccccc3)s2)cc1	-13	-13	-10	-5	9	5425	-1.0
Cc1ccc(-c2nn(-c3ccccc3)cc2C(=O)NCCCN2CCCC2=O)cc1	nt	-6	nt	nt	0	4632	nt

Continuation.
Compound	Mtb hypoxia rep	PrP UTR inh	Sa ugtP lethal	Mtb hypoxia rep growth	BJeLR viability	Autofluor counter	RN4220 kill
Cc1ccc(/C=N/NC(=O)Cn2cnc3ccccc32)cc1	nt	-36	nt	nt	15	4386	nt
COc1ccc(N(CN2C(=O)c3ccccc3C2=O)C(=O)COc2ccc(Cl)cc2Cl)cc1	4	-8	1	2	19	9516	22
COc1ccc(CCn2c(=N)c(C(=O)NCc3ccco3)cc3c(=O)n4ccccc4nc32)cc1	-3	-10	2	-5	0	22951*	3.1
CSCCC(NS(=O)(=O)c1ccccc1F)C(=O)Nc1ccncc1 (configuration not stated)	12	-25	13	4	nt	4064	5.9
CC1(C)CC(=O)C2=C(C1)NC(=O)CC2c1ccccc1F (configuration not stated)	nt	-17	4	nt	8	2458	0.8
Cc1cccc(C(=O)N2CCc3ccccc3C2)c1[N+](=O)[O-]	2	-9	13	13	4	2497	8.6
Cc1ccc(CCN2CC(C(=O)NCCCN(C)Cc3ccccc3)CC2=O)cc1 (configuration not stated)	11	-17	-1	6	4	2934	-6.7
CCN1C(=O)/C(=c2\o/c(=C3\C=Cc4ccccc4N3CC)c(=O)n2CC)SC1=S	nt	-24	nt	nt	13	12681	nt
COc1ccc(N(CC(=O)NC(C)(C)C)C(=O)CCC(=O)Nc2nccs2)cc1	-2	-8	3	6	-8	2956	3.2
N#CCCN1CCN(C(=S)c2ccc(-c3ccc(Cl)cc3)o2)CC1	3	-40	3	5	-15	20131*	4.5
C[C@H](CO)N1C[C@H](C)[C@@H](CN(C)C(=O)Nc2ccccc2)Oc2ccc(NS(=O)(=O)c3cn(C)cn3)cc2C1=O	9	-21	4	6	nt	2823	-11
Nc1nnnn1/N=C/c1ccccc1OCc1ccccc1	nt	-5	nt	nt	4	7798	nt
N#CCCN(CCC#N)C(=S)NC1CC2C=CC1C2 (configuration not stated)	-3	-10	1	12	-15	5570	0.0
CN(C)S(=O)(=O)c1ccc(Cl)c(NC(=O)CN2CCCCCC2)c1	15	0	4	6	2	4442	4.9
COc1ccccc1C(=O)Nc1ccc2c(c1)nc(CN1CCN(C(C)=O)CC1)n2C	-2	-18	8	7	nt	?	4.4
CCc1ccc([C@H]2C(C(=O)O)=C[C@@H](CC)N2S(=O)(=O)c2ccc(C)cc2)cc1	-7	-16	-5	-5	nt	3519	-3.5
O=C(O)C1CCN(C(=O)CSc2nc3cc(Cl)ccc3c(=O)n2Cc2ccccc2)CC1	-2	-17	-19	-4	-6	4779	4.8
CCn1nc(C)cc1C(=O)N1CCCC(C(=O)c2ccc(OC)cc2C)C1 (configuration not stated)	4	-26	4	3	2	5895	2.6
C=CCn1c(Cc2ccc(OC)cc2)nnc1SCC(=O)NCCc1ccccc1	2	-25	2	4	2	10613	-1.6
O=C(CSc1cn(CCNC(=O)c2ccccc2)c2ccccc12)NCC1CCCO1 (configuration not stated)	-5	-16	7	1	-2	6009	5.6
CN(Cc1ccc2nonc2c1)Cc1nc(Cc2cccc(F)c2)no1	6	-24	4	-3	-13	2100	0.7
CC1(C)CC(=O)CC(C)(C)N1OC(=O)c1ccco1	nt	-8	10	nt	7	3989	2.9
CN1CCN(S(=O)(=O)c2cc([N+](=O)[O-])ccc2N/N=C/c2ccc(Cl)cc2)CC1	nt	-25	nt	nt	6	2346	nt
CC1CC(C)CN(S(=O)(=O)c2ccc3c(c2)NC(=O)C(C)C(=O)N3)C1 (configuration not stated)	2	-19	3	-3	5	5312	6.3
CC(=O)Nc1sc2c(c1C(c1ccc(Cl)cc1)N1CCOCC1)CCCC2 (configuration not stated)	nt	-12	-12	nt	3	2901	-4.5

The list continues:
Compound	Mtb hypoxia rep	PrP UTR inh	Sa ugtP lethal	Mtb hypoxia rep growth	BJeLR viability	Autofluor counter	RN4220 kill
Cc1cc(SCC(=O)OCC(=O)N(C)c2ccccc2)nc2ccccc12	4	-21	10	12	3	6096	2.1
CC(=O)Oc1ccc2cc(-c3cccnc3)c(=O)oc2c1	8	-27	-2	11	nt	3798	3.6
COCCN1Cc2cccc(C(=O)NC(C)CCc3ccco3)c2C1=O (configuration not stated)	-6	-13	12	3	5	2749	2.7
CC1(c2cccc(Br)c2)NC(=O)N(CC(=O)Nc2ccc3c(c2)OCO3)C1=O (configuration not stated)	4	-13	0	-3	nt	3668	-1.5
Cc1ccc(C)n1NC(=O)c1ccc(Cl)cc1	nt	-7	-3	nt	-5	4340	0.0
CCOC(=O)c1c(NC(=O)CC)sc(C(C)=O)c1C	nt	-4	0	nt	6	5068	2.5
CSc1cc(C)[nH]c(=O)n1	5	-3	3	-5	-2	2059	3.2
CCOC(=O)c1ccc(N2C(=O)C(O)=C(C(C)=O)C2c2ccc([N+](=O)[O-])cc2)cc1 (configuration not stated)	2	-22	12	4	-2	3299	3.5
CCN(CC(=O)Nc1c(F)cccc1F)C(=O)c1ccc2c(c1)OCCO2	4	-12	7	-4	-12	4723	-0.1
Cc1cccc(C)c1OCC(=O)N(Cc1ccc(N(C)C)cc1)C1CCS(=O)(=O)C1 (configuration not stated)	2	-30	2	5	-2	4564	3.7
CC(C)OC(=O)C(C)Nc1ccc(F)c(Cl)c1 (configuration not stated)	12	-18	10	9	-9	3010	5.3
COc1cc(C)ccc1OCC(=O)OCC(=O)c1[nH]c(C)c(C(C)=O)c1C	12	-21	0	3	nt	3758	0.5
Cc1nc(SCc2nc3ccccc3[nH]2)c2oc3ccccc3c2n1	15	-5	-11	16	1	2511	4.3
CC(C)n1cc([C@@H]2C[C@H]3CN(Cc4cccc(Cl)c4)C(=O)[C@]34CCCN24)cn1	nt	-4	nt	nt	8	4027	nt
O=C(O)C1CC(=O)N(c2ccc(OCc3ccc(Cl)cc3Cl)cc2)C1 (configuration not stated)	3	4	-9	4	2	10872	6.8
COc1ccc(/C=C2\SC(=S)N(CC(=O)OCC(=O)Nc3cc(Cl)cc(Cl)c3)C2=O)cc1	nt	-17	nt	nt	13	3412	nt
CCCCNC(=O)c1onc(CSc2ccc(C(C)C)cc2)c1C(=O)O	0	-17	4	3	-3	3063	36
COc1ccc(SCCN2CCC(NC(=O)OCc3ccccc3)CCC2=O)cc1 (configuration not stated)	8	nt	7	0	nt	nt	5.5
CCc1cc2c(C)ccc(C)c2nc1SCC(=O)Nc1c(C)[nH]c(=O)[nH]c1=O	6	-10	7	6	2	9745	3.9
COc1nc(C)nc2c1ccc1ccccc12	nt	-21	4	nt	-2	4325	1.1
NS(=O)(=O)c1cc2c(cc1Cl)NC(C1C[C@H]3C=C[C@@H]1C3)NS2(=O)=O (some centres not stated)	nt	2	nt	nt	-2	4138	nt
O=C(Nc1cc(-c2ccccc2)nn1-c1ccccc1)c1ccccc1F	21	-14	2	7	nt	3022	-3.1
O=C(N/N=C/c1ccc(-c2cccc([N+](=O)[O-])c2)o1)c1ccccc1O	nt	-19	nt	nt	5	3814	nt
CCOc1ccc(OCCC(=O)N(CC)CC(=O)Nc2ccccc2C(F)(F)F)cc1	2	-26	-2	-4	-7	5545	7.3
COc1ccc(C(CC(=O)N2CCOCC2)c2c(OC)cc(OC)c3ccc(=O)oc23)cc1 (configuration not stated)	2	-16	1	6	-1	3960	3.4

Later entries:
Compound	Mtb hypoxia rep	PrP UTR inh	Sa ugtP lethal	Mtb hypoxia rep growth	BJeLR viability	Autofluor counter	RN4220 kill
O=C(COc1coc(CN2CCN(c3ccccc3)CC2)cc1=O)Nc1ccc(F)cc1	11	-13	8	-4	-6	4724	1.0
O=C(/C=C/Nc1ccc(F)cc1)c1ccc(Br)cc1	5	-91	7	1	9	2174	7.0
O=C(NCCc1ccc(Cl)cc1)C1CCC(=O)N1Cc1ccccc1Cl (configuration not stated)	3	-15	4	1	-18	22400*	-0.2
CNC(=S)NCc1ccc2[nH]c(C)cc2c1	3	-31	4	-11	7	3850	3.8
CCN(CC)c1ccc(C=NNC(=O)c2ccc([N+](=O)[O-])cc2)cc1	10	nt	4	3	nt	nt	2.8
COC(=O)c1ccc(NC(=O)CN2C(=O)CC(C)S(=O)(=O)c3ccccc32)cc1 (configuration not stated)	0	1	1	-3	3	5821	0.7
Cc1ccc(C)c(-c2cc(C(=O)Nc3cccnc3)c3ccccc3n2)c1	5	-8	22	5	6	4240	-7.2

3 compounds already listed, ordered by count of non-hydrogen atoms, low to high.
Compound	Mtb hypoxia rep	PrP UTR inh	Sa ugtP lethal	Mtb hypoxia rep growth	BJeLR viability	Autofluor counter	RN4220 kill
CNC(=S)NCc1ccc2[nH]c(C)cc2c1	3	-31	4	-11	7	3850	3.8
O=C(NCCc1ccc(Cl)cc1)C1CCC(=O)N1Cc1ccccc1Cl (configuration not stated)	3	-15	4	1	-18	22400*	-0.2
COC(=O)c1ccc(NC(=O)CN2C(=O)CC(C)S(=O)(=O)c3ccccc32)cc1 (configuration not stated)	0	1	1	-3	3	5821	0.7

Assay outcomes (PubChem BioAssay)
